Assay outcomes as filed in PubChem.
TRPML1 inh – qHTS for Inhibitors of the Human Mucolipin Transient Receptor Potential 1 (TRPML1); Mucolipin-1 (Homo sapiens), Q9GZU1; TRPML1-inducible cells, Ca2+ dye fluorescence, FDSS; active compounds read low; inhibition of EC80 agonist-evoked calcium signal; activity change, negative = inhibition, % (test concentration not listed); 390,000 compounds, 0.02% hits; in the data active means activity change below about -50%; inconclusive means about -30% to -50%; inactive means above about -30%;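 also: stimulus is agonist 54-4 at its EC80 concentration; % is scaled to controls: 0 for no effect and ±100 for the full control effect; compound concentration not given in the record; the text of the record puts the active cut at -80%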
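Tet-induced TRPML1-DL cells loaded with Ca8 no-wash calcium dye were read kinetically on FDSS. Compound addition was followed by EC80 agonist 54-4 (4 uM final); inhibition was read over 110 s.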
ClpP mod – qHTS Assay for Activators of ClpP | AID 651965, 2013 | purified B. subtilis ClpP, FRET peptide cleavage, 20 min | Potency, µM (titrated, usually from 57.5 µM), inactives show top-dose activity change, negative = active | ATP-dependent Clp protease proteolytic subunit (Bacillus subtilis (strain 168)), P80244 | 340,000 compounds, 1.9% hits; active = well fitted falling curve with a large enough effect; inconclusive = small, poorly fitted or top-dose-only effect; inactive = no such curve, though single readings can be large or run the other way; also: potency is read from the fitted curve at half-maximal effect; the source files actives as falling curves though it sought activators and does not explain the sign; nearly all actives have a fitted effect of over 65% in size; many hits overshoot -100%
Target sequence (P80244 whole entry, looked up): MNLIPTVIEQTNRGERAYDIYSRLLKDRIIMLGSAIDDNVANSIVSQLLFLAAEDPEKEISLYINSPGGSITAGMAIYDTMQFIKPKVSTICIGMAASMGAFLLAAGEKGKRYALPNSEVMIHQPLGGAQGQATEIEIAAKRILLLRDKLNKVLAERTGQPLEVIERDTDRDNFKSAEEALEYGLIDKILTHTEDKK
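FRET quenching reversal measured ClpP activation: 10 microg/mL B. subtilis ClpP at pH 8 with the FRET-FV decapeptide, read at 430 nm after 320 nm excitation. The 20-min minus 0-min signal was scaled between DMSO/no-enzyme wells and ADEP (5.8 microM final).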
gsp antagonist – qHTS for Antagonists of gsp, the Etiologic Mutation Responsible for Fibrous Dysplasia/McCune-Albright Syndrome: qHTS | 340,000 compounds, 0.4% hits | AID 624288, 2012 | gsp-mutant cells, cAMP HTRF, 30 min; control for the full effect not named in the record | Potency, µM (top dose mostly 76.9 µM), inactives show top-dose activity change, negative = inhibition, actives largely listed as inhibitors; active = falling curve of any shape with a large fitted effect; inconclusive = falling curve, mostly with a smaller effect; inactive = flat or rising curve; cell line not stated here;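 also: intracellular cAMP measured with PDE inhibitor Ro 20-1724 present during compound exposure; potency is read from the fitted curve at half-maximal effect; % is scaled to controls: 0 for no effect and ±100 for the full control effect; nearly all actives have a fitted effect of over 65% in size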
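Cells in G418 medium, seeded 16-24 h, 37C; buffer exchange to DPBS + 1 mM CaCl2, 0.5 mM MgCl2, 0.05% BSA; cpds in DMSO + […] (300 uM stock), 30 min 37C; HTRF cAMP detection.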
gsp agonist – qHTS for Agonist of gsp, the Etiologic Mutation Responsible for Fibrous Dysplasia/McCune-Albright Syndrome: qHTS; 340,000 compounds, 0.13% hits; gsp mutant cells, cAMP HTRF, 30 min; control for the full effect not named in the record; Potency, µM (doses to about 76.9 µM), for inactives: at the top dose activation (cAMP increase), most hits filed as activators; AID 624287, 2012; active = well fitted activation curve with a large enough effect; inconclusive = small, poorly fitted or top-dose-only effect, or another doubt; inactive = no such curve, though single readings can be large or run the other way; cell line not stated here;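 also: phosphodiesterase inhibitor Ro 20-1724 added with compounds to block cAMP breakdown; potency is read from the fitted curve at half-maximal effect; nearly all actives have a fitted effect of over 60% in size; about a fifth of the inactives were tested at one dose only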
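Cells in DMEM/10% FBS with G418 were pretreated with compounds in DMSO plus […] (300 uM stock) for 30 min at 37C. cAMP was measured by HTRF (cAMP-d2 plus anti-cAMP antibody-K) after 30 min at room temperature.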
TRPV1 PAM – HTS Assay for Compounds that Act as Potentiators of the Vanilloid Receptor 1 | Transient receptor potential cation channel subfamily V member 1 (Homo sapiens), Q8NER1 | TRPV1-expressing cells, Fluo-8 calcium influx, capsaicin EC20 potentiation; host cell line not named in the record; control for the full effect not named in the record | potentiation, % at 8.33 µM | 320,000 compounds, 0.02% hits | AID 540277, 2011; active means potentiation above 80%; inconclusive means 30% to 80%; inactive means below 30%; also: 0% is about no effect
Target sequence (Q8NER1 whole entry, looked up): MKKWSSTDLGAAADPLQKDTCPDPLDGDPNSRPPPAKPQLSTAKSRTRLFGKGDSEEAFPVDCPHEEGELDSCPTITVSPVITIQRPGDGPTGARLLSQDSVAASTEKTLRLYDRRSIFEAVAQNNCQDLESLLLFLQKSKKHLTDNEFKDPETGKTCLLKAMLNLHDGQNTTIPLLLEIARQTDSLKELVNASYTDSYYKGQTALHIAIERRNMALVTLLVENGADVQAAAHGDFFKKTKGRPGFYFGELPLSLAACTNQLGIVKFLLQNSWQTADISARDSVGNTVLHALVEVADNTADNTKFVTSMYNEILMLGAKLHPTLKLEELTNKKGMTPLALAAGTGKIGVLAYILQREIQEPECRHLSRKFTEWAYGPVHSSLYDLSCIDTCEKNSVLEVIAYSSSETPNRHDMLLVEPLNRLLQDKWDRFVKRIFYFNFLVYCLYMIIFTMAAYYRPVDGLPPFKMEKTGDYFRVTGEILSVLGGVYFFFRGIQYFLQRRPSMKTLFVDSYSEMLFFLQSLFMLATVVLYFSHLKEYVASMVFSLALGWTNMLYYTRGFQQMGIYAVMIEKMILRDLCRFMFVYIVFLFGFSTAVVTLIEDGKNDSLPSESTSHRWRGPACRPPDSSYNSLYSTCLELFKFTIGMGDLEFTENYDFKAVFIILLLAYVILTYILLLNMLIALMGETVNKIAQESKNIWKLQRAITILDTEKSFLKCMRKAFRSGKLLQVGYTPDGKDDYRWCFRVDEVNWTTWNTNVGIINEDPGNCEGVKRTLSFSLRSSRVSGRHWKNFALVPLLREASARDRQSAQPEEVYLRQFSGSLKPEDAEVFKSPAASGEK
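Fluo-8 calcium influx in TRPV1-expressing cells, kinetic read (ex 480/em 520 nm). Compound added and read 3 min for agonist activity, followed by capsaicin at EC20 final and 2 min further read for enhancement.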
Sfp PPTase inh – qHTS Assay for Inhibitors of Bacillus subtilis Sfp phosphopantetheinyl transferase (PPTase); Biochemical Sfp PPTase activity, qHTS; 310,000 compounds, 3.5% hits; Potency, µM, inactives show max response, negative = inhibition, hits mostly inhibitors; 4'-phosphopantetheinyl transferase ffp (Bacillus subtilis), Q9F4F7; active = well fitted inhibition curve with a large enough effect; inconclusive = small, poorly fitted or top-dose-only effect, or another doubt; inactive = no such curve, though single readings can be large or run the other way;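 also: the enzyme is Sfp with the accession as filed and its product quenches rhodamine fluorescence; potency is read from the fitted curve at half-maximal effect; 0% = enzyme reaction without inhibitor and -100% = no enzyme wells; top concentration of the series not given in the record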
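Buffer: 50 mM Hepes-Na pH 7.6, 10 mM MgCl2, 0.01% Nonidet P-40, 0.01% BSA. Enzyme 15 nM, pre-exposed to compound 15 min; substrates then added and fluorescence change tracked over 30 min.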
Menin MLL FP FL – qHTS Assay for Inhibitors Targeting the Menin-MLL Interaction in MLL Related Leukemias: Competition With Fluorescein Labeled MLL-derived Peptide. Fluorescence polarization, fluorescein-MLL peptide displacement from menin. FP activity change, % at 61.4 µM. 290,000 tested, under 10 active. AID 1766, 2009; inconclusive = falling polarisation curve, or a change in total fluorescence; inactive = total fluorescence flat and polarisation flat or rising; no compound was filed as active; the % refers to the polarisation; negative = inhibition;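 also: % of control where 0% means no effect; inhibitors lower the polarisation; unlabelled MLL peptide was the positive control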
* = called active by the depositor; ? = inconclusive; nt = not tested or not shown; & = joins results of further samples; [ ] = remark or other dose.

SMILES | TRPML1 inh | ClpP mod | gsp antagonist | gsp agonist | TRPV1 PAM | Sfp PPTase inh | Menin MLL FP FL
CCCn1c(C)cc(C(=O)COC(=O)c2cc(=O)[nH]c3ccccc23)c1C | 12 | -0.8% | nt | -26% | nt | nt | nt
O=c1c2ccccc2nnn1CSc1nnc(Nc2ccccc2)s1 | -24 | 0.2% | -10% | -21% | ? | 15% | 2.0
CCOC(=O)c1ccc(NC(=O)C(=O)NCC2CCCO2)cc1 (stereo not given) | -13 | 32µM* | 2%[15.4 µM] | 0% | -17 | 8% | -1.6
Cc1ccc(NC(=O)CN(C)C(=O)CSc2nc3ccccc3o2)cc1 | 6 | -1.8% | 2% | 3% | -6 | 21% | 6.4
O=CN1CCN(C(=O)CC(c2ccccc2)c2cc(Br)ccc2O)CC1 (stereo not given) | 24 | -1.2% | -5% | -7% | 0 | 1% | -2.5
O=C1C(=Cc2ccccc2O)SC(=S)N1CCCN1CCOCC1 | 0 | -0.6% | nt | ? | nt | nt | nt
COc1ccc(C(=O)OCCN2CCOCC2)cc1OC | 6 | 1.6% | 8% | -1% | 21 | 12% | 5.9
CCCn1c(=O)c(C(=O)NCc2cccnc2)c(O)c2ccccc21 | -11 | -7.5% | 10% | -14% | 15 | -4% | -0.1
COc1ccc(OC)c(S(=O)(=O)N2CCN(C(=O)c3cc(C4CC4)nn3-c3ccccc3)CC2)c1 | -3 | -0.9% | ? | -3% | 9 | nt | nt
Cn1c(=O)c2c(nc(C3CC4C5CCC(C5)C4C3)n2C)n(C)c1=O (stereo not given) | -2 | -2.8% | -14% | -7% | nt | nt | nt
Cc1[nH]c2ccc(F)cc2c(=O)c1SC(F)(F)C(F)F | 1 | -0.9% | 1% | 22% | -6 | 6% | 2.6
CC(C)c1ccc(CN2CC(C(=O)O)CC2=O)cc1 (stereo not given) | -7 | 0.0% | -5% | 17% | -5 | 12% | 1.4
COc1ccc(C2C(C(=O)c3ccco3)=C(O)C(=O)N2CCN2CCOCC2)c(OC)c1 (stereo not given) | -4 | nt | nt | 1%[15.4 µM] | 13 | -1% | nt
Cc1nc(C)n(C(C)CC(=O)O)n1 (stereo not given) | 13 | -2.1% | 8% | -3% | 14 | 6% | -1.0
Cc1nn(C(=O)/C(C#N)=C/N(C)C)c(C)c1C | -14 | nt | nt | -33%[15.4 µM] | 27 | 9% | -3.6
CC(C)(C)c1ccc(/C([O-])=C(/C(=S)NCc2ccco2)[n+]2ccccc2)cc1 | nt | nt | nt | nt | 10 | 50µM* | 13
COC(=O)NNC(=O)COc1cc(C)ccc1C | 2 | 1.2% | 13% | -8% | 7 | 6% | -1.1
C/C(=C\C(=S)Nc1ccccc1)Nc1ccc2ccccc2c1 | 23 | 35µM* | 0% | 28% | 17 | ? | 0.5
CCOc1ccc(Nc2nc(NCc3ccco3)nc(N)c2[N+](=O)[O-])cc1 | 0 | nt | 22% | -12%[15.4 µM] | nt | 13% | 4.4
COc1ccc(C(=S)N2CCN(c3cccc(Cl)c3)CC2)c(OC)c1 | 11 | nt | 9% | -52%[inhibitor] | 0 | 18µM* | -0.5
Cc1c(NC(=O)C(C)OC(=O)c2cc(Cl)ccc2O)c(=O)n(-c2ccccc2)n1C (stereo not given) | -2 | -9.2% | 10% | 2% | 9 | 23% | nt
CCC(=O)Nn1c(C)nnc1C | 28 | -3.5% | -4%[15.4 µM] | 11% | -2 | -6% | -0.5
CC1CCC2(CC1)NC(=O)N(Cc1nc(-c3ccccc3)no1)C2=O (stereo not given) | 5 | -5.1% | 7% | 11%[15.4 µM] | ? | 13% | 4.2
Cc1ccc2c(c1)N(CC(=O)N1CCCCCC1)C(=O)CO2 | -7 | 0.1% | -2% | -42%[inhibitor] | -13 | 9% | -0.8
COc1cccc(NC(=O)n2nc(N)cc2-c2ccc(Cl)cc2)c1 | 3 | 0.6% | -12% | 15% | ? | 14% | -0.1
O=C(NCc1ccc(Cl)cc1)C1CCC(CNS(=O)(=O)c2ccccc2)CC1 (stereo not given) | -10&-23 | 0.5%&1.1% | -5% | -32% | -9 | 3% | -2.4
Cc1ccc(S(=O)(=O)Nc2cccc(C(=O)NC3CCN(Cc4ccccc4)CC3)c2)cc1F | 7 | -3.8% | -9% | -109%[inhibitor] | -7 | nt | nt
O=C(O)COc1ccc(/C=N/NC(=O)Cc2ccc(Cl)cc2)cc1 | 25 | -1.9% | -4% | 13% | -3 | 18% | 3.6
Oc1ccc(N=Cc2ccc(O)c(O)c2)cc1 | 15 | -3.5% | -7% | -29% | 7 | 45µM* | 4.1
Cn1nc(NC(=O)C(F)(F)F)c2ncc(-c3ccc(Cl)cc3)nc21 | 8 | 0.1% | -7% | 38% | 1 | 13% | 3.7
O=C(N/N=C/c1ccc(O)cc1)c1[nH]c2ccc(Br)cc2c1-c1ccccc1 | -2 | -26% | 13% | 19% | -10 | -1% | -3.0
CC(C)(C)CC(=O)Nc1cc2c3c(c1)CC(=O)N3CCC2 | 20 | -0.5% | 16% | 20% | 11 | 11% | -0.9
CCOc1ccc(OCC)c(NC(=O)CN2CCN(c3cccc(C)c3)CC2)c1 | 9 | -6.3% | -13% | -30% | -1 | 25µM* | 5.5
COc1cc(/C=C2\C(=N)N3N=C(S(C)(=O)=O)SC3=NC2=O)cc(OC)c1OCCOc1ccc(C)cc1 | -15 | -2.2% | ? | 10% | 3 | -8% | -2.7
COc1ccccc1N1CCN(c2ccc3c(c2)S(=O)(=O)c2cccc(C(=O)NCc4ccc(F)cc4)c2C3=O)CC1 | -3 | -3.4% | nt | -8% | nt | nt | nt
CCCn1c2ccccc2c2cnn(CC(=O)NCCCN3CCCC(C)C3)c(=O)c21 (stereo not given) | 7 | 3.4% | 8% | ? | -23 | 4% | nt
CCc1ccc(OCC(=O)NC(C)(C)C)cc1 | 20 | 67% | 7% | 11% | -16 | -2% | 3.7
Cn1c(N)c(S(=O)(=O)N2CCN(c3ccccc3Cl)CC2)c(=O)n(C)c1=O | -4 | 0.4% | 18% | 6% | 0 | 8% | 3.3
COCc1cc(=O)[nH]c2cc(NC(=O)C3CC3)c(C)cc12 | -16 | 20µM* | -3% | -13% | -8 | 14% | 2.8
CC(=O)c1c(C)[nH]c(C(=O)COc2cc(C)cc(C)c2)c1C | 4 | -1.7% | 10% | 0% | -4 | 8% | 0.3
CC(C)(C)Nc1nc(C(N)=O)nc(N2CCOCC2)n1 | -5 | -2.3% | 11% | 7% | ? | 20% | 4.0
COc1cc(/C=N/NC(=O)COc2ccc(C)cc2)ccc1OC(=O)c1cccs1 | -23 | 0.2% | 12% | 1% | 11 | 20% | 4.5
COc1ccc(C(=O)Nc2ccc(NC(=O)c3cnccn3)cn2)cc1 | 12 | -8.1% | 4% | 6% | nt | 1% | 6.1
O=C(/C=C/c1cccc([N+](=O)[O-])c1)Nn1c(-c2ccccc2F)nc2ccccc2c1=O | 58 | nt | -4% | 2%[15.4 µM] | -16 | -6% | nt
CCOC(=O)C1(CCOc2ccccc2)CCN(Cc2ccccc2O)CC1 | -5 | nt | 1% | -63%[inhibitor] | nt | nt | nt
CCN=C1SC(C(=O)Nc2ccc(Cl)c(Cl)c2)CC(=O)N1CC (stereo not given) | -6 | 0.7% | -12% | -3% | 3 | 19% | -0.1
COc1ccc(CNC(=O)COC(=O)c2ccccn2)cc1 | -4 | 0.8% | 5% | 2%[15.4 µM] | -1 | -2% | -0.4
COc1cccc(N(C(=O)Cn2nnc3ccccc32)C(C(=O)NCc2ccco2)c2cccnc2)c1 (stereo not given) | 3 | 35µM* | -11% | 1% | 26 | 2% | 4.7
CCc1ccc(OCC(=O)Nc2ccc(S(=O)(=O)N3CCCC3)cc2)c(Br)c1 | 1 | 0.3% | 6% | -22% | 11 | 15% | 0.2
Cc1nn(-c2ccccc2)nc1C(=O)OCC(=O)N1CCCCC1C (stereo not given) | 27 | 10µM* | -3% | -8% | nt | nt | nt
COCCNC(=O)c1c(N)n(-c2ccccc2)c2nc3ccccc3nc12 | 2 | 18µM* | -4% | ? | -12 | -6% | 4.0
COc1ccc(-c2cc(C)no2)cc1S(=O)(=O)N1CCOc2ccc(C)cc21 | -21 | 0.5% | 4% | ? | -24 | 11% | nt
Cc1ccc(/C=C(\C#N)C(=O)N2CCCC2)c(C)c1 | 1 | nt | -1% | 19% | -10 | 17% | -1.5
CC(=O)N1N=C(c2cccs2)CC1c1ccco1 (stereo not given) | -3 | nt | 3% | 1% | 0 | 13% | 1.6
CCC1(CC)NC(=O)N(CC(=O)Nc2ccc(OCc3ccccc3)cc2)C1=O | 3 | -0.7% | 5% | 8%[15.4 µM] | nt | nt | nt
O=C(NCCO)C(=O)c1c(-c2ccc(Cl)cc2)cc2ccccn12 | -7 | nt | 11% | 35%[15.4 µM] | 5 | 19% | -7.0
Cc1c(N=NC2=C(O)CCCC2=O)c(=O)n(-c2ccccc2)n1C | 7 | nt | -2% | 18%[15.4 µM] | -7 | 14µM* | -0.9
Cc1ccc(OCC(=O)Nc2ccc3c(c2)C(=O)N(CCC(=O)O)C3=O)cc1 | -9 | -2.2% | 4% | ? | 7 | 7% | nt
